DUX4 txn inh – blocks DUX4-driven transcriptional activation | 293T-iDUX4 ZSCAN4-Gaussia luciferase reporter, 24 h; hits give low values | 0.8% of 37,000 active | activity change, negative = inhibition, % (test concentration not listed);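 active = -10% or lower and over 25 points stronger than a control reporter; inconclusive = -10% or lower with a smaller gap; inactive = above -10%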;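 note: 0% = median of neutral control wells and -100% = median of positive control wells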
DUX4 txn inh difference – second read-out of DUX4 txn inh, no call of its own (marks repeat the call); Gaussia minus Italica difference, %; measured here: selective DUX4 reporter inhibition;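 worked out from the two reporters; negative = selective loss of the DUX4 reporter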
DUX4 txn inh control – further read-out of DUX4 txn inh, marked with its call; activity change, negative = inhibition, %; measured here: Italica tet-on control reporter;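 0 = neutral control and -100 = positive control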
* marks the source's active call; other numbers are inactive results; ? = inconclusive; . = no result given.

compound,DUX4 txn inh,DUX4 txn inh difference,DUX4 txn inh control
C[C@@H]1CN([C@@H](C)CO)C(=O)c2cccc(NC(=O)c3ccc(-c4nccs4)cc3)c2O[C@H]1CN(C)Cc1ccc(Cl)c(Cl)c1,0,-2,2.0
O=C(C[C@H]1CC[C@H]2[C@@H](COC[C@H](O)CN2Cc2cccc(-c3ccncc3)c2)O1)N1CCOCC1,10,9,0.4
C[C@@H]1CN([C@H](C)CO)C(=O)Cc2cc(NC(=O)c3ccncc3)ccc2O[C@@H]1CN(C)Cc1ccc2c(c1)OCO2,-1,1,-2.8
COc1ccc(C#Cc2ccc3c(c2)[C@H]2[C@H](CCN2C(=O)Nc2ccc(C(F)(F)F)cc2)[C@H](CO)N3C)cc1,?,.,.
C/C=C/c1cnc2c(c1)C(=O)N([C@@H](C)CO)C[C@@H](C)[C@H](CN(C)C(=O)c1cnccn1)O2,-1,-4,3.0
CCNC(=O)[C@@H]1[C@@H](CO)[C@@H]2Cn3c(ccc(-c4cccc(OC)c4)c3=O)[C@@H]2N1C(=O)NC(C)C,4,5,-1.3
CN1CCN(C(=O)[C@@H]2[C@@H](CO)[C@@H]3Cn4c(ccc(/C=C/c5ccccc5)c4=O)[C@@H]3N2CC2CC2)CC1,-6,5,-11
O=C(Cc1ccccc1)NC[C@H]1N[C@H](CO)[C@@H]1c1ccc(-c2ccccc2)cc1,-2,0,-2.4

Reformatted: results already given
DUX4 txn inh	DUX4 txn inh difference	DUX4 txn inh control	canonical_smiles
4	5	-1.3	CCNC(=O)[C@@H]1[C@@H](CO)[C@@H]2Cn3c(ccc(-c4cccc(OC)c4)c3=O)[C@@H]2N1C(=O)NC(C)C
?	.	.	COc1ccc(C#Cc2ccc3c(c2)[C@H]2[C@H](CCN2C(=O)Nc2ccc(C(F)(F)F)cc2)[C@H](CO)N3C)cc1
-1	1	-2.8	C[C@@H]1CN([C@H](C)CO)C(=O)Cc2cc(NC(=O)c3ccncc3)ccc2O[C@@H]1CN(C)Cc1ccc2c(c1)OCO2
-6	5	-11	CN1CCN(C(=O)[C@@H]2[C@@H](CO)[C@@H]3Cn4c(ccc(/C=C/c5ccccc5)c4=O)[C@@H]3N2CC2CC2)CC1

New compounds follow:
compound,DUX4 txn inh,DUX4 txn inh difference,DUX4 txn inh control
O=C(CCN1CCCCC1)N[C@H]1CC[C@H](CCn2cc(-c3cccc(F)c3)nn2)O[C@H]1CO,-4,0,-3.8
N#Cc1cccc(-c2ccc3c(c2)[C@@H]2[C@@H](CCN2Cc2cncnc2)[C@H](CO)N3)c1,-7,0,-7.8
COc1ccccc1S(=O)(=O)N1CC[C@@H]2[C@@H](CO)Nc3ccc(Br)cc3[C@@H]21,1,3,-1.5
C[C@H](NC(=O)C[C@H]1C[C@@H]2c3cc(NC(=O)Cc4ccncc4)ccc3O[C@@H]2[C@@H](CO)O1)c1ccccc1,0,3,-2.9
COc1cccc(S(=O)(=O)N(C)C[C@@H]2Oc3cc(C4=CCCCC4)ccc3S(=O)(=O)N([C@H](C)CO)C[C@H]2C)c1,-3,-4,1.1
CO[C@@H]1CN(C)C(=O)c2ccc(NS(=O)(=O)c3ccccc3C)cc2OC[C@H](C)NC[C@@H]1C,-3,-4,0.3
CCCN(C)C[C@@H]1OCCCC[C@@H](C)Oc2ccc(NC(=O)CCCN(C)C)cc2C(=O)N([C@H](C)CO)C[C@H]1C,0,-8,8.5
O=C(C[C@H]1CC[C@@H]2[C@H](COC[C@@H](O)CN2Cc2ccc(Cl)cc2)O1)NCc1cccc(F)c1,?,.,.
CC(C)NC(=O)N(C)C[C@H]1Oc2ccc(NS(=O)(=O)c3ccc(F)cc3)cc2CC(=O)N([C@H](C)CO)C[C@@H]1C,1,1,0.3
COc1ccc2c3c([nH]c2c1)[C@@H](CO)N(C(=O)CC1CC1)CC31CN(Cc2cccnc2)C1,11,6,4.2
CC(C)CC#Cc1ccc([C@H]2[C@@H](CO)N3C(=O)CN(C(=O)NC4CCCCC4)C[C@H]23)cc1,0,5,-5.1
N#C[C@H]1N[C@@H](CO)[C@@H]1c1ccccc1,-7,0,-7.1
CCc1nc(N2[C@H](CO)[C@H](c3ccccc3-c3ccccc3C)[C@@H]2C#N)sc1C,-3,-4,1.3
O=C(c1cnccn1)N1CC(=O)N2[C@H](C1)[C@@H](c1ccc(C#CC3CC3)cc1)[C@@H]2CO,4,3,0.7
CC=Cc1ccc2n(c1=O)C[C@@H]1[C@@H](CO)[C@H](C(=O)N(C)C)[C@H]2N1C(=O)c1ccc(F)cc1 (mixture of isomers),6,2,4.2
CCCNC(=O)N1C[C@@H]2N[C@H](C1)C2c1ccc(-c2cccnc2)cc1 (some centres not stated),-1,-27,26

Structures listed so far that contain a cyano group, in the order listed:
compound,DUX4 txn inh,DUX4 txn inh difference,DUX4 txn inh control
N#Cc1cccc(-c2ccc3c(c2)[C@@H]2[C@@H](CCN2Cc2cncnc2)[C@H](CO)N3)c1,-7,0,-7.8
N#C[C@H]1N[C@@H](CO)[C@@H]1c1ccccc1,-7,0,-7.1
CCc1nc(N2[C@H](CO)[C@H](c3ccccc3-c3ccccc3C)[C@@H]2C#N)sc1C,-3,-4,1.3

(continued)
compound,DUX4 txn inh,DUX4 txn inh difference,DUX4 txn inh control
COc1ccc(NC(=O)Nc2ccc3c(c2)[C@@H]2C[C@H](CC(=O)NCCc4ccccc4)O[C@H](CO)[C@@H]2O3)cc1,-5,-1,-4.0
CN(C)C(=O)[C@H]1[C@H](CO)[C@H]2Cn3c(ccc(-c4cccc(F)c4)c3=O)[C@@H]1N2CC1CC1,2,7,-4.7
C[C@H](CO)N1C[C@H](C)[C@@H](CN(C)Cc2cccc(O)c2)OCc2cn(nn2)CCCC1=O,-6,-8,2.2
CO[C@@H](CN(C)C(=O)c1cnccn1)[C@H](C)CN([C@H](C)CO)S(=O)(=O)c1ccc(F)cc1,3,1,1.6
C[C@H](CO)N1C[C@H](C)[C@@H](CN(C)S(=O)(=O)c2ccc(Cl)cc2)Oc2ccc(NC(=O)Cn3cnnn3)cc2CC1=O,1,4,-2.9
CN(C)CCCNC(=O)C[C@H]1CC[C@H]2[C@H](COc3ccc(NC(=O)c4cccc(F)c4)cc3C(=O)N2C)O1,3,3,0.3
CC(C)C[C@H]1COCc2cn(nn2)CC[C@H](Cc2cccc(Cl)c2)C(=O)N1,0,-3,3.1
COCCNC(=O)C[C@H]1C[C@@H]2c3cc(NC(=O)Nc4ccc(OC)cc4)ccc3O[C@@H]2[C@H](CO)O1,2,-1,3.6
O=C(c1cccnc1)N1CC[C@@H]2[C@H](CO)Nc3ccc(-c4ccc(F)cc4)cc3[C@@H]21,?,.,.
COc1ccc2c3c(n(C)c2c1)[C@@H](CO)N(C(=O)Nc1ccc(F)cc1)CC31CCN(C(=O)NC(C)C)CC1,6,18,-12
C[C@H]1CN([C@@H](C)CO)S(=O)(=O)c2ccc(-c3cccc(C#N)c3)cc2O[C@@H]1CN(C)C(=O)c1ccccc1,5,-1,6.3
OC[C@@H]1[C@@H](c2ccc(-c3cccc(F)c3)cc2)[C@H]2CN(Cc3cncnc3)CCCCN12,4,-15,19
CS(=O)(=O)Nc1ccc2c(c1)[C@H]1C[C@H](CC(=O)NCc3ccc(Oc4ccccc4)cc3)O[C@H](CO)[C@H]1O2,?,.,.
COCC(=O)N(C)C[C@@H]1Oc2ncc(-c3ccc(F)cc3)cc2C(=O)N([C@H](C)CO)C[C@H]1C,-5,-3,-1.6
C[C@H](CO)N1C[C@H](C)[C@H](CN(C)Cc2ccc3c(c2)OCO3)Oc2c(cccc2N(C)C)C1=O,4,4,-0.4
CO[C@H]1CC[C@H]2CCN(C)C(=O)[C@@H](C)N(C)C(=O)c3cc(C#N)ccc3OC[C@H]1O2,0,0,0.0
COc1ccc(NC(=O)N(C)C[C@@H]2Oc3ccc(NC(=O)CCN4CCOCC4)cc3C(=O)N([C@H](C)CO)C[C@H]2C)cc1,0,2,-2.8
CCCC(=O)N1CCC2(CC1)CN(Cc1nccs1)[C@@H](CO)c1[nH]c3cc(OC)ccc3c12,-2,-2,0.0
C[C@@H]1CN([C@@H](C)CO)C(=O)Cc2cc(NC(=O)Nc3ccccc3)ccc2O[C@@H]1CN(C)CC1CCCCC1,-4,-8,4.8
O=C(Cc1ccncc1)NCC[C@@H]1CC[C@H](NS(=O)(=O)c2ccccc2Cl)[C@H](CO)O1,7,5,1.2
C[C@@H](NC(=O)C[C@@H]1C[C@H]2c3cc(NC(=O)C4CCOCC4)ccc3O[C@H]2[C@H](CO)O1)c1ccccc1,3,4,-0.9
CCCN1[C@@H]2c3ccc(-c4ccccc4F)c(=O)n3C[C@@H]2[C@@H](CO)[C@@H]1C(=O)NCC,-2,-2,0.3
COc1ccccc1CNC(=O)C[C@@H]1CC[C@@H]2[C@@H](COc3ccc(NC(=O)Nc4ccc(F)c(F)c4)cc3C(=O)N2C)O1,0,-7,7.1
O=C(NCc1ccc(F)cc1)[C@H]1[C@H](CO)[C@H]2Cn3c(cccc3=O)[C@H]2N1C(=O)c1cccnc1,-2,-3,1.1
N#C[C@@H]1[C@H](c2ccc(-c3ccccc3F)cc2)[C@H](CO)N1C(=O)c1ccccn1,2,-1,3.1
O=C(CC1CC1)N1CC(=O)N2[C@H](CO)[C@@H](c3ccc(/C=C/c4ccccc4)cc3)[C@H]2C1,-3,2,-5.1
C/C=C/c1ccc([C@@H]2[C@H](CO)N(C(=O)C3CCCC3)C23CN(S(=O)(=O)CC)C3)cc1,?,.,.
Cc1noc(C)c1NC(=O)N(C)C[C@@H]1Oc2c(NC(=O)c3nc4ccccc4s3)cccc2C(=O)N([C@@H](C)CO)C[C@@H]1C,6,-1,6.9
CC=Cc1ccc2n(c1=O)C[C@@H]1[C@@H](CO)[C@H](C(=O)NC3CCCC3)N(CC3CCCCC3)[C@H]21 (mixture of isomers),?,.,.
C[C@@H]1CN([C@@H](C)CO)S(=O)(=O)c2ccc(C#CC3CCCC3)cc2O[C@@H]1CN(C)C(=O)Cc1ccccc1,0,-1,1.0
C[C@@H]1CN([C@@H](C)CO)C(=O)c2ccccc2-c2ccccc2CO[C@H]1CN(C)C(=O)c1ccc(F)cc1,16,9,7.5
CCCC(=O)N1CC2(C1)CN(C(=O)CC)[C@@H](CO)c1c2c2ccc(OC)cc2n1C,17,11,5.6
C[C@@H](NC(=O)[C@H]1N[C@H]2c3ccc(C4=CCCC4)c(=O)n3C[C@H]2[C@@H]1CO)c1ccccc1,-7,-7,0.3
CCC(=O)N1C[C@H]2[C@@H](c3ccccc31)[C@H](CO)N2Cc1ccc(F)cc1,3,2,1.4
C/C=C/c1ccc([C@H]2[C@@H](CO)N(C(=O)NC(C)C)[C@H]2CNC(C)=O)cc1,-3,-2,-1.1
CC(C)NC(=O)N1C[C@H]2[C@@H](c3ccccc31)[C@@H](CO)N2C(=O)c1cccnc1,-3,-5,1.9
Cc1noc(C)c1S(=O)(=O)Nc1ccc2c(c1)C(=O)N([C@@H](C)CO)C[C@@H](C)[C@@H](CN(C)Cc1ccc(C(=O)O)cc1)OCCCC[C@H](C)O2,-4,-1,-2.6
Cn1cnc(S(=O)(=O)N2C[C@@H](O)COC[C@H]3O[C@@H](CC(=O)NC4Cc5ccccc5C4)CC[C@@H]32)c1,8,6,2.4
CC=Cc1ccc2n(c1=O)C[C@@H]1[C@@H](CO)[C@H](C(=O)NCC(F)(F)F)N(CC)[C@H]21 (mixture of isomers),3,0,2.7
C[C@H](O)C#Cc1ccc([C@H]2[C@H]3CN(S(=O)(=O)Cc4ccccc4)CCCCN3[C@H]2CO)cc1,24,12,12
C/C=C/c1ccc([C@@H]2[C@H](CO)N[C@@H]2CN(C)S(=O)(=O)c2ccccc2)cc1,1,-3,4.1
CO[C@@H](CN(C)S(=O)(=O)c1ccccc1)[C@@H](C)CN(C(=O)Nc1ccccc1F)[C@@H](C)CO,-4,-1,-3.2
N#C[C@@H]1[C@@H](c2ccc(-c3ccccc3F)cc2)[C@@H](CO)N1C(=O)c1ccccn1,3,-3,5.2
CN1CCN(C(=O)[C@H]2[C@H](CO)[C@H]3Cn4c(cccc4=O)[C@H]3N2Cc2ccccc2F)CC1,-2,-1,-0.9
COc1ccc(NC(=O)N(C)C[C@H]2Oc3ncc(-c4cccnc4)cc3C(=O)N([C@@H](C)CO)C[C@H]2C)cc1,-2,-3,1.2
CNC[C@H]1Oc2ccc(NC(=O)Cc3cn(C)c4ccccc34)cc2C(=O)N([C@@H](C)CO)C[C@@H]1C,0,1,-0.6
COc1ccccc1CNC(=O)C[C@H]1CC[C@@H]2[C@H](COC[C@H](O)CN2C(=O)Nc2ccccc2)O1,12,5,7.6
CN(C)CCCNC(=O)[C@H]1[C@H](CO)[C@H]2Cn3c(ccc(-c4ccc(F)cc4)c3=O)[C@H]2N1C,5,6,-0.7
CCC(=O)N1CC2(C1)[C@@H](c1ccc(-c3ccc(F)cc3)cc1)[C@H](CO)N2S(C)(=O)=O,3,6,-3.5
N#C[C@@H]1[C@@H](c2ccccc2)[C@H](CO)N1C(=O)c1cc(Cl)cc(Cl)c1,3,-1,3.1

Compound activity: PubChem BioAssay, Broad Institute

A portion of the library; count on the stated rates, not on these rows.
